Source: PubChem BioAssay
HSV replic up = enhancers of HSV replication in host cells, fold increase, host cell viability. HSV replication augmentation in cells. 220,000 compounds, 0.005% hits. AID 1956, 2009. maximum fold increase;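 active = peak rise of 1.5-fold or more in the series; tested in PC3 cells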;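 note: first round at 10 µM; read as green reporter fluorescence; hits show the peak of a series up to 25 µM; 1 = signal of infected wells without compound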
PKD1 inh = inhibitors of human PKD1 kinase, biochemical, fluorescence polarization | Serine/threonine-protein kinase D1 (Homo sapiens), Q15139 | PKD1 kinase fluorescence polarization assay | inhibition, %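 (about 10 µM by stock and volumes)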 | 200,000 compounds, 0.056% hits;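 active = inhibition of 50% or more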;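 note: controls were vehicle for no effect and a reference inhibitor for full effect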
RGS16-Gao = modulators of RGS16 binding to Galphao, primary screen, biochemical, human proteins, multiplexed bead flow cytometry | 220,000 compounds, 0.38% hits | bead-based flow cytometry RGS16-Galphao binding, fluorescence; actives lie on both sides | binding response (% of control), % at 10 µM;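 active = below 25% or above 175%, edge rows of some plates excepted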;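 note: Galphao activated by GDP with aluminum fluoride before binding; 100% = wells without compound and 0% = beads without RGS; some results beyond the cut were filed as inactive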
Target sequence (O15492 whole entry, looked up): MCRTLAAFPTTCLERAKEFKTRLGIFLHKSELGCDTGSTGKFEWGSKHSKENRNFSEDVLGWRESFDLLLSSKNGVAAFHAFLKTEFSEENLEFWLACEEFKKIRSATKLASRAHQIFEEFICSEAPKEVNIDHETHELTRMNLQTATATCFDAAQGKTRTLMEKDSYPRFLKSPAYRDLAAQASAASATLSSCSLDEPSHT
Target sequence (P09471 whole entry, looked up): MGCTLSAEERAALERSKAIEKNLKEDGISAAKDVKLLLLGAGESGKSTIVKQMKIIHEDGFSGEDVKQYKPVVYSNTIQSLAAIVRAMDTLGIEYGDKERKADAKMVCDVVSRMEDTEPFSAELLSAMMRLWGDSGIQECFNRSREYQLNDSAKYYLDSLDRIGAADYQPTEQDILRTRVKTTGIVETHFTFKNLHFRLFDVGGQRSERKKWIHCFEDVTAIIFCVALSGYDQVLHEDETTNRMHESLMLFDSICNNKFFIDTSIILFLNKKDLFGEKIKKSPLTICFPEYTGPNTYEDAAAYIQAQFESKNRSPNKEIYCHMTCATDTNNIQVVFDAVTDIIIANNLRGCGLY
Insulin prom inh = inhibitors of insulin promoter-driven GFP, primary screen, imaging, TRM-6 cells (human fetal islet line), eGFP reporter, cell count; reporter expression induced with tamoxifen; inhibition, % at 2 µM; 130,000 compounds, 0.9% hits; AID 1273, 2008;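 active = inhibition above the mean plus 3 SD, with well images judged a real hit on visual review, cut at about 60% in these data, passing the limit was not always enough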
GALR2 agonist = GALR2 receptor agonists, primary screen, cell-based | GALR2-expressing cells, agonist activation read-out | activation, %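 (tested at 5 µM)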 | 140,000 compounds, 0.48% hits;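 active = above mean plus 3 SD of all compounds, about 5% in these data, not always enough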;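 note: 0% = vehicle buffer wells and 100% = reference agonist at full effect; tested in CHO reporter cells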
Target sequence (O43603 whole entry, looked up): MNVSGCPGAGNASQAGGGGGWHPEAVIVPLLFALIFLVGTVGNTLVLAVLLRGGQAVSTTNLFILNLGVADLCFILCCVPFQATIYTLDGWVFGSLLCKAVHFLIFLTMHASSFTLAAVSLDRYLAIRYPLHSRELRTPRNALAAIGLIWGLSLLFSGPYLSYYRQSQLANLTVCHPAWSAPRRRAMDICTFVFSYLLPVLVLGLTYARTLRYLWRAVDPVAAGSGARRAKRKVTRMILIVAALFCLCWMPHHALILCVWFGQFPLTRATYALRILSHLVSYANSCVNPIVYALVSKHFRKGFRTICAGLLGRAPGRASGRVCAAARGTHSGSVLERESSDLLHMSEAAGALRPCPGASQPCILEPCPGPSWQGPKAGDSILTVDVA
Insulin prom inh cell count = recorded beside Insulin prom inh, whose call it bears; normalized cell count, %; measured here: cell count, toxicity; reference of the scale not given here;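 cells exposed to compound for 48 h; stained nuclei by imaging scaled within each plate; lower means fewer cells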
HSV replic up primary fold = also measured in HSV replic up; calls as there; fold increase; compound at 10 µM; measured here: primary screen fold increase 10 uM; tested in PC3 cells;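 GFP signal in the first replicate; 1 = infected wells without compound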
Starred values were filed as active, the others as inactive; i = inactive; . = not tested or not shown. An unsorted share of the library; any-hit rate near 1.3%.

Preview, 4 compounds:
The line under a structure holds: HSV replic up	HSV replic up primary fold	PKD1 inh	RGS16-Gao	Insulin prom inh	Insulin prom inh cell count	GALR2 agonist
> Cc1cc(C)nc(/N=C(\N)N2CCCCCC2)n1
    i	1	-9	101	50	161	17*
> CC(C)Cc1ccc(S(=O)(=O)N2CCN(C(=O)c3ccco3)CC2)cc1
    .	.	-11	98	10	83	-1.1
> CCC1=NN(C(=O)Cc2ccc([N+](=O)[O-])cc2)C(O)(C(C)(C)C)C1 (configuration not stated)
    i	1.1	-2	103	-44	150	.
> Cc1cc(Cl)ccc1OCCCC(=O)NCC1CCCO1 (configuration not stated)
    i	1	-5	100	66	49	-1.1

The listing, from the start:
The line under a structure holds: HSV replic up	HSV replic up primary fold	PKD1 inh	RGS16-Gao	Insulin prom inh	Insulin prom inh cell count	GALR2 agonist
> Cc1cc(C)nc(/N=C(\N)N2CCCCCC2)n1
    i	1	-9	101	50	161	17*
> CC(C)Cc1ccc(S(=O)(=O)N2CCN(C(=O)c3ccco3)CC2)cc1
    .	.	-11	98	10	83	-1.1
> CCC1=NN(C(=O)Cc2ccc([N+](=O)[O-])cc2)C(O)(C(C)(C)C)C1 (configuration not stated)
    i	1.1	-2	103	-44	150	.
> Cc1cc(Cl)ccc1OCCCC(=O)NCC1CCCO1 (configuration not stated)
    i	1	-5	100	66	49	-1.1
> CC(=O)c1c(C(C)=O)c(C)n(-c2ccc(N)c(C)c2)c1C
    i	1	7	93	-22	79	-0.6
> CCc1ccc(/C=C2\Oc3c(ccc(O)c3CN3CCN(C)CC3)C2=O)cc1
    i	1	.	114	.	.	.
> Cc1nc(NC(=O)/C=C/c2ccccc2)sc1C(=O)Nc1ccc(Cl)cc1
    i	0.66	6	67	17	123	-0.3
> Cc1nc2nc(-c3cccnc3)nn2c(C)c1Cl
    i	0.94	-10	104	46	42	-0.7
> Cc1[nH][nH]c(=O)c1C(c1c(C)[nH][nH]c1=O)c1cn(Cc2ccccc2Cl)c2ccccc12
    i	0.95	-3	104	15	88	1.5
> O=C(NCCc1ccccc1)C1CC(=O)N(C2CCCCCC2)C1 (configuration not stated)
    i	0.74	-5	102	.	.	-1.1
> Cc1csc2ncnc(NCCc3ccccn3)c12
    i	0.99	9	99	-44	103	.
> CCOC(=O)C1(CC2CCCCO2)CCN(C(=O)NCc2ccccc2)CC1 (configuration not stated)
    i	0.97	-8	104	.	.	.
> O=C(CN1C(=O)CNC1=O)Nc1cccc(C(F)(F)F)c1
    i	0.97	2	104	0	70	-0.1
> COc1ccc(-n2c(SCc3ccc([N+](=O)[O-])cc3)nnc2-c2ccccc2)cc1
    i	0.93	-11	86	.	.	-0.3
> CCc1nc(N)c(C#N)c(-c2ccc(OC)c(OC)c2)c1C
    i	0.81	-2	100	-83	143	1.0
> COC(=O)c1ccc(N2C(=O)Nc3ccccc3N2O)cc1
    i	0.88	4	94	5	70	.
> O=C(c1cccc([N+](=O)[O-])c1)N1CCCC(C(=O)N2CCCCC2)C1 (configuration not stated)
    i	1.3	.	103	.	.	.
> COc1ccc(OCC(O)CNC(=O)Nc2cc(F)ccc2C)cc1 (configuration not stated)
    i	0.99	.	96	.	.	.
> Cc1ccc(C)c2[nH]c(=O)c(CN(Cc3ccc4c(c3)OCO4)Cc3nnnn3Cc3ccco3)cc12
    i	1.1	-4	92	26	92	-1.5
> Cc1ccc(NC(=O)CSc2ccccc2NC(=O)c2ccccc2)cc1Cl
    i	0.62	3	108	-71	104	-0.8
> O=C(CCN1CCc2ccccc2CC1)c1ccc2c(c1)OCCO2
    i	0.68	-6	102	53	92	-2.8
> COC(=O)C1=C(NC(=O)c2ccc(C)cc2)CCS1
    i	1.3	-8	108	64	85	-1.4
> COc1ccc(/C=N/N=C2/NC(=O)C(c3ccccc3)(c3ccccc3)S2)cc1
    i	0.94	10	91	0	147	-1.8
> CC(C)Oc1cc2oc(=O)c3c(c2cc1Cl)CCC3
    i	0.98	-9	103	12	104	-2.1
> CCN(CC(=O)NC1CCCC1)S(=O)(=O)c1ccc(C)cc1
    i	0.88	-5	102	69	121	-2.7
> Cc1cc(/C=C(\C#N)C(=O)O)c(C)n1CC(C)C
    i	1	7	97	.	.	-1.4
> COc1ccc(C(=O)Nc2ccc(S(=O)(=O)Nc3cc(C)nc(C)n3)cc2)c(OC)c1
    i	1	-9	102	-38	122	0.6
> Cc1cc(C)c(-n2c(C)cc(/C=C3/NC(=O)NC3=O)c2C)c(C)c1
    i	0.89	-5	94	-62	82	-0.2
> C/C(=N\NC(=O)COc1ccc(C(C)(C)C)cc1)c1ccc(OC(F)F)cc1
    i	1	1	99	.	.	1.0
> O=C1CCCC2=C1C(c1ccccc1)CC(=O)N2c1ccccc1 (configuration not stated)
    i	0.89	-9	105	-182	59	-1.0

The results go on.
The line under a structure holds: HSV replic up	HSV replic up primary fold	PKD1 inh	RGS16-Gao	Insulin prom inh	Insulin prom inh cell count	GALR2 agonist
> Cc1ccc(Cn2c(=O)n(Cc3ccco3)c(=O)c3ccccc32)cc1
    i	1	-13	100	-4	87	-1.4
> CC(=O)CC(=O)Nc1ncc(C(F)(F)F)cc1Cl
    i	0.97	-2	99	.	.	.
> Cc1ccc(N2C(=O)C(Cc3ccccc3)NC2=S)cc1 (configuration not stated)
    i	1.1	-4	102	4	114	-5.5
> O=C(Nc1cccc(F)c1)c1c(F)c(F)c(F)c(F)c1F
    i	0.73	5	103	71	120	-2.4
> Cc1cc([N+](=O)[O-])nn1CCCC(=O)O
    i	0.87	2	98	.	.	.
> NNc1nc(Nc2ccccc2)nc(N2CCCCC2)n1
    i	0.7	-1	102	64	189	-1.7
> C=CCn1c(SCC(=O)N2CCc3ccccc3C2)nc2sc(C)cc2c1=O
    i	1	-2	80	-30	89	-0.5
> Cc1ccc2nc(SCC(=O)N(CC(C)C)c3c(N)n(Cc4ccccc4)c(=O)[nH]c3=O)[nH]c2c1
    i	0.97	.	97	.	.	.
> CC(C)c1ccc(/C=C(\c2nc3ccccc3[nH]2)S(=O)(=O)c2ccccc2)cc1
    i	0.62	6	78	36	146	-1.9
> Cc1cccc(Nc2ncccc2C(=O)NCc2cccs2)c1C
    i	0.76	-1	113	-10	101	-1.1
> CCCCCOC(=O)Cn1c(N2CCCCCC2)nc2c1c(=O)[nH]c(=O)n2C
    i	0.89	-14	106	-118	154	-1.4
> CC1(C)C2CCC1(C)C1(C2)NC(=O)c2ccccc2O1 (configuration not stated)
    i	1.1	-11	108	-29	67	-0.1
> CCSc1nnc(COc2ccccc2)n1CC
    i	0.94	.	101	.	.	.
> COc1cc(C2C3C(C)N(C)C(=O)N(C)C3N(C)C(=O)N2C)ccc1O (configuration not stated)
    i	0.99	3	97	-25	78	1.3
> CCOc1ccccc1NC(=S)Nc1ccccc1F
    i	1.1	3	95	23	89	-1.2
> CCC(C)NC(=O)c1ccccc1NC(=O)Nc1ccccc1 (configuration not stated)
    i	0.94	-6	98	-43	169	-1.2
> O=C(N1CCOCC1)N1CCCC(c2nc(-c3cccs3)no2)C1 (configuration not stated)
    i	1.1	-7	97	.	.	0.8
> OCCn1c(CSc2nc3ccccc3n2CCO)nc2ccccc21
    .	.	-3	101	.	.	-2.1
> CCn1c(SCC(=O)c2ccccc2)nc2sc3c(c2c1=O)CCN(C)C3
    i	1.2	.	105	.	.	.
> COc1ccccc1NS(=O)(=O)c1cccc(NC(=O)Nc2ccccc2)c1
    i	0.87	-12	110	0	132	-1.3
> O=C(CSCc1ccco1)NC1CCCC1
    i	1	-7	104	-69	78	-0.8
> CC(C)CNC(=O)COC(=O)c1ccccc1SCC(=O)NCC(C)C
    i	0.96	2	102	-11	109	.
> COc1cc(NC(=O)C2CCCO2)c(OC)cc1Cl (configuration not stated)
    i	0.86	-7	92	-55	138	-2.1
> C=CCOc1ccc2c(c1)c(=O)cc(C(=O)O)n2CC
    i	1.2	.	92	.	.	.
> CCc1nc(SCc2ccc([N+](=O)[O-])cc2)n[nH]1
    i	0.95	-19	35	-20	58	-1.5
> N/C(=N\OC(=O)COc1ccc(Cl)cc1)c1cccnc1
    i	1	2	126	-329	43	-0.3
> CCNC(=S)NNC(=O)c1ccc(OC(F)F)cc1
    i	0.97	-8	101	10	118	-1.9
> COc1ccc(/C=N/NC(=O)C(C)n2nnc3ccccc32)cc1OC (configuration not stated)
    i	0.96	-11	101	-11	74	0.0
> CNNC(=O)C(=O)NNS(=O)(=O)c1ccccc1
    i	1	-4	99	-19	91	.
> CC1Cc2ccccc2N1S(=O)(=O)c1cccc(C(=O)N2CC(=O)Nc3ccccc32)c1 (configuration not stated)
    i	1	.	98	.	.	.

Reformatted field by field: 2 of the compounds above
> CC(C)Oc1cc2oc(=O)c3c(c2cc1Cl)CCC3
  HSV replic up: i	HSV replic up primary fold: 0.98	PKD1 inh: -9	RGS16-Gao: 103	Insulin prom inh: 12	Insulin prom inh cell count: 104	GALR2 agonist: -2.1
> CCN(CC(=O)NC1CCCC1)S(=O)(=O)c1ccc(C)cc1
  HSV replic up: i	HSV replic up primary fold: 0.88	PKD1 inh: -5	RGS16-Gao: 102	Insulin prom inh: 69	Insulin prom inh cell count: 121	GALR2 agonist: -2.7

Carrying on.
The line under a structure holds: HSV replic up	HSV replic up primary fold	PKD1 inh	RGS16-Gao	Insulin prom inh	Insulin prom inh cell count	GALR2 agonist
> O=C(Cc1n[nH]c(=O)c2ccccc12)Nc1cccc(S(=O)(=O)N2CCCC2)c1
    i	1.1	.	93	.	.	.
> Cc1c(C2(O)C(=O)Nc3ccc(F)cc32)c(=O)n(-c2ccccc2)n1C (configuration not stated)
    i	1	-11	100	44	78	-2.3
> C=CCOC(=O)c1sc(NC(=O)c2ccc(OC)cc2)nc1C
    i	0.89	-1	112	-38	109	.
> Cc1nnc(SCc2ccccc2)n1CC1CCCO1 (configuration not stated)
    i	1.1	-7	29	29	53	0.3
> O=C(CN1CCCCC1)Nc1ccccc1
    i	1	6	103	.	.	-0.5
> CCOC(=O)c1sc(NC(=O)CC)c(C#N)c1C
    i	0.87	2	105	50	116	.
> CC(C)(C)n1nc(-c2ccc(Cl)cc2)c2c(N)ncnc21
    i	0.74	13	99	-7	116	0.7
> CCCc1cc(N2CCC(C(N)=O)CC2)nc(-c2ccccc2)n1
    i	0.86	7	94	.	.	.
> COC(=O)[C@@H]1[C@@H](C)N(Cc2ccccc2)C(=O)N[C@H]1c1cccc(C(F)(F)F)c1
    i	0.88	.	99	.	.	.
> CCOC(=O)Cc1csc(NC(=O)c2c(-c3c(F)cccc3Cl)noc2C)n1
    i	0.87	-1	101	-275	90	-1.1
> O=C1C2CC=CCC2C(=O)N1c1n[nH]c(-c2ccccc2)n1 (configuration not stated)
    i	1	-3	104	34	55	-2.3
> COc1ccc(NCc2n[nH]c(=O)c3ccccc23)cc1
    i	1.1	-3	117	14	95	-1.2
> Cc1ccc(NC(=S)N(CCN(C)C)Cc2cccs2)c(C)c1
    i	0.95	3	85	-92	203	.
> O=C(Cn1cc([N+](=O)[O-])cn1)N1N=C(C(F)F)CC1(O)C(F)F (configuration not stated)
    i	0.95	-3	110	38	65	-2.7
> CC(C)(C)c1cccc(P(=O)(c2ccccc2)c2ccccc2)c1O
    i	0.93	.	98	.	.	.
> Cc1ccccc1NC(=O)c1cc(S(=O)(=O)c2ccccc2)ccc1Cl
    i	0.71	-6	108	-31	129	-1.4
> CS(=O)(=O)N1N=C(c2cccs2)CC1c1ccco1 (configuration not stated)
    i	0.95	-5	109	8	91	.
> COc1ccc(-n2nnnc2S(=O)(=O)Cc2ccc(C(=O)O)cc2)cc1
    i	0.87	-3	103	-16	197	-1.0
> C/C(=C\c1ccccc1)C(=O)NCCCn1ccnc1
    i	1	-1	103	.	.	.
> COc1cc2c(cc1NC(=O)c1cccc(F)c1)CCCC2
    .	.	1	100	0	86	-1.3
> CCC(Sc1nnc2c3ccccc3n(CC)c2n1)C(=O)Nc1sc2c(c1C#N)CCCC2 (configuration not stated)
    i	0.95	-4	96	57	143	-0.4
> CCN(CC)c1ccc(/C=N/OCC(=O)Nc2cccc(C)c2)cc1
    i	0.97	-7	105	.	.	-1.9
> CN(C)c1ccc(S(=O)(=O)NCC(=O)OCC(=O)Nc2cccc(Cl)c2)cc1[N+](=O)[O-]
    i	0.95	11	61	31	102	-0.3
> NC(=O)COC(=O)CC(c1ccccc1)c1ccccc1
    i	0.95	-3	98	.	.	.
> Nc1nc2sc3c(c2c(=O)s1)CCCC3
    i	0.83	-12	101	8	234	1.8
> Cc1ccc(C(CC(N)=O)c2ccco2)cc1 (configuration not stated)
    i	0.99	-5	81	19	143	-0.6
> Cc1ccc(S(=O)(=O)/N=C2/NC(=O)/C(=C/c3ccccc3)S2)cc1
    i	0.94	-4	111	-25	69	.
